Cruzain noTriton = qHTS Assay for Promiscuous and Specific Inhibitors of Cruzain (without detergent); Potency, µM, without a hit: max response, negative = inhibition, most hits filed as inhibitors; purified cruzain, Z-FR-AMC fluorescence, no detergent; Cruzipain (Trypanosoma cruzi), P25779; 200,000 compounds, 2.3% hits; active = well fitted curve in the direction sought with a large enough effect; inconclusive = small, poorly fitted or top-dose-only effect, or another doubt; inactive = no such curve, though single readings can be large; an effect the other way counts as inactive or inconclusive;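 also: plate controls were enzyme without inhibitor for no effect and buffer without enzyme for full effect; nearly all actives have a fitted effect of over 40% in size; top concentration of the series not given in the record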
Target sequence (P25779 123-467 limits assumed): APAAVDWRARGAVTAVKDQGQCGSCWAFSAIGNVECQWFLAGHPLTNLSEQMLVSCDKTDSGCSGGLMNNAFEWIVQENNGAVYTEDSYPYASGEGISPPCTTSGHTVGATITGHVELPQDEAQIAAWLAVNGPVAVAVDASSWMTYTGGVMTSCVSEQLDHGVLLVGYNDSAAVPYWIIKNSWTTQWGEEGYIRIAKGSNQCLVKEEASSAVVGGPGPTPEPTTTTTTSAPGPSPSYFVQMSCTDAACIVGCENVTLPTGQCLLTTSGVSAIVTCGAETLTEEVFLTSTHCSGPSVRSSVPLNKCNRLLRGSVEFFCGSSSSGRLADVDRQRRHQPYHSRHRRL
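Purified cruzain at 1.5 nM, pre-incubated 15 min with compound at room temperature in 100 mM sodium acetate pH 5.5, 5 mM DTT, 0.00005% Triton X-100. Reaction started with 2 uM Z-FR-AMC; AMC fluorescence increase over 60 s gives rate.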
SARS PLP yeast = qHTS of Yeast-based Assay for SARS-CoV PLP | S. cerevisiae expressing SARS-CoV PLpro, growth rescue; control for the full effect not named in the record | Potency, µM (highest dose often 32.9 µM), inactives show top-dose activity, positive = growth rescue | 330,000 compounds, 0.19% hits; also: 0% is about no effect; nearly all actives have a fitted effect of over 55% in size; growth read by luminescence after 48 h
2A StopGo = High Throughput Screening for Foot and Mouth Disease Virus Antivirals; AID 1159524, 2015; human cells with a luciferase reporter of 2A StopGo recoding; control for the full effect not named in the record; 410,000 compounds, 1.2% hits; Potency, µM (doses to about 57.9 µM), inactives show at the highest dose signal change, negative = less light; active = well fitted falling curve with a large enough effect; inconclusive = small, poorly fitted or top-dose-only effect; inactive = no such curve, though single readings can be large or run the other way; tested in HEK293T cells; also: % is scaled to controls: 0 for no effect and ±100 for the full control effect; nearly all actives have a fitted effect of over 45% in size; luciferase light after 4 h
Marburg entry inh = qHTS for inhibitors of binding or entry into cells for Marburg Virus; Marburg virus pseudotyped entry inhibition, cell reporter; control for the full effect not named in the record; about a third of the inactives were read at about 46 µM; 300,000 compounds, 1.8% hits; AID 540276, 2011; Potency, µM (series often up to 37.8 µM), for the others: top-dose activity change, negative = inhibition, hits mostly inhibitors; active = well fitted inhibition curve with a large enough effect; inconclusive = small, poorly fitted or top-dose-only effect, or effect the other way; inactive = flat fitted curve, though single readings scatter; tested in HEK293 cells; about a fifth of its hits are not listed in these tables; also: % is scaled to controls: 0 for no effect and ±100 for the full control effect; luciferase read-out
Cruzain Triton = qHTS Assay for Promiscuous and Specific Inhibitors of Cruzain (with detergent); Cruzipain (Trypanosoma cruzi), P25779; purified cruzain, Z-FR-AMC fluorescence, 0.01% Triton; Potency, µM, for the others: max response, negative = inhibition, actives largely listed as inhibitors; 200,000 compounds, 0.43% hits; AID 1478, 2009; active = well fitted curve in the direction sought with a large enough effect; inconclusive = small, poorly fitted or top-dose-only effect, or another doubt; inactive = no such curve, though single readings can be large; an effect the other way counts as inactive or inconclusive;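 also: plate controls were neutral wells for no effect and buffer without enzyme for full effect; nearly all actives have a fitted effect of over 40% in size; top concentration of the series not given in the record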
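In this qHTS format, compounds are incubated with 1.5 nM cruzain for 15 min at room temperature before 2 uM Z-FR-AMC is added. Release of AMC is followed at 360/450 nm, and progress is taken as the 60 s fluorescence difference.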
NS1 function inh = qHTS Assay for Inhibitors of Influenza NS1 Protein Function | 270,000 compounds, 0.4% hits | Potency, µM (series often up to 46.1 µM), inactives show at the top dose activity, positive = more growth | S. cerevisiae slowed by influenza A NS1, growth recovery by OD600; also: actives are rising curves; nearly all actives have a fitted effect of over 50% in size
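Read-out: OD600 growth recovery of NS1-expressing budding yeast. Cells grown overnight at 30C in -URA glucose medium, washed, resuspended and diluted 1:100 in 2% galactose assay medium, pH 6.0. Same strain lacking NS1 served as positive control.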
RE007 growth inh = qHTS Assay for Inhibitors of the HIV-1 protein Vpr; 360,000 compounds, 0.21% hits; S. pombe RE007 Vpr strain, BacTiter-Glo ATP luminescence, 24 h; control for the full effect not named in the record; AID 651644, 2012; Potency, µM (titrated, usually from 92.2 µM), for the others: top-dose activity change, negative = less growth; active = well fitted falling curve with a large enough effect; inconclusive = small, poorly fitted or top-dose-only effect; inactive = no such curve, though single readings can be large or run the other way;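 also: % is scaled to controls: 0 for no effect and ±100 for the full control effect; nearly all actives have a fitted effect of over 50% in size; the assay follows cell death caused by Vpr and the record does not say whether a fall means rescue or toxicity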
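Fission yeast RE007 carrying one integrated HIV-1 vpr copy, seeded at OD 0.01 in PMG+AL medium with 23 nL pinned compound. Grown 24 h at 30 degrees; viability read by BacTiter-Glo luminescence after 5 min.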
LASV entry inh = qHTS for Inhibitors of binding or entry into cells for Lassa Virus; Lassa virus pseudotype entry inhibition, cell reporter; control for the full effect not named in the record; Potency, µM (series often up to 37.9 µM), for the others: top-dose activity change, negative = inhibition, actives largely listed as inhibitors; 300,000 compounds, 1.2% hits; AID 540256, 2011; active means well fitted inhibition curve with a large enough effect; inconclusive means small, poorly fitted or top-dose-only effect, or effect the other way; inactive means flat fitted curve, though single readings scatter; tested in HEK293 cells; also: % is scaled to controls: 0 for no effect and ±100 for the full control effect; nearly all actives have a fitted effect of over 50% in size; luciferase read-out
Numbers without * were called inactive; ? = inconclusive; · = no result given; & = joins results of further samples; ! = not active in a repeat; [ ] = dose if it differs, or a comment. Unless noted, calls follow the shape of the dose curve; as a rule, active means well fitted rising curve with a large enough effect; inconclusive means small, poorly fitted or top-dose-only effect; inactive means no such curve, though single readings can be large or run the other way. Potency is read from the fitted curve at half-maximal effect.

Compound	Cruzain noTriton	SARS PLP yeast	2A StopGo	Marburg entry inh	Cruzain Triton	NS1 function inh	RE007 growth inh	LASV entry inh
O=C(CSc1ncnc2c1nnn2Cc1ccc(F)cc1)NCC1CCCO1 (centres undefined)	·	-4%	35µM*	·	·	-1%	7%	·
Cc1ccc(N(C(=O)c2sc(C)nc2C)C(C(=O)NCc2ccco2)c2ccccc2)cc1 (centres undefined)	?	1%	·	?	-3.7%	-12%	-2%	7.3µM*
COC(=O)c1ccc(Oc2nc(N(C)C)nc(N3CCOCC3)n2)cc1	1%	3%	?	?	3.9%	-16%	-13%	16%
O=[n+]1c2c(n([O-])c3c1CCCC3)CCCC2	-9%	0%	-17%	16%	-2.6%	12%	10%	2%
COc1ccc(N2CC(C(=O)N[C@@H](C)C(=O)NCCc3ccccc3)CC2=O)cc1 (some centres undefined)	·	-17%	2%	·	·	11%	-13%	·
CCC(C)NC(=O)CSc1nc2c(sc3ccccc32)c(=O)n1Cc1ccccc1Cl (centres undefined)	11%	·	7%	·	4.6%	·	·	6%[46.1 µM]
CCOc1ccc(N)cc1OC	·	1%	-9%	0%[46.1 µM]	·	·	16%	22%
c1ccc(Cn2c[n+](Cc3ccccc3)c3ccccc32)cc1	·	5%	-26%	·	·	-16%	6%	·
CS/C(=N/S(=O)(=O)c1ccc(C)cc1)c1ccccc1	12%	-8%	-3%	17%	0.5%	-6%	8%	-4%
Cc1ccc2cc(C)c(N3CCC(C)CC3)nc2c1	·	1%	8%	?	·	·	-14%	10%[46.1 µM]
CC1(C)CC(=O)C(C2C3=C(CC(C)(C)CC3=O)Oc3ccc4ccccc4c32)C(=O)C1 (centres undefined)	·	0%	17%	?	·	-1%	-9%	-25%[46.1 µM]
CCCCNC(=O)c1ccc2c(c1)NC(=O)C(CS(=O)(=O)Cc1ccc(F)cc1Cl)N2 (centres undefined)	-23%	·	-10%	·	-5.5%	·	·	0%[46.1 µM]
CSc1cccc(NS(=O)(=O)c2ccc3c(c2)oc(=O)n3C)c1	-7%	14%	0%	0%	-4.0%	-31%	0%	·
Cc1cc(C)cc(NCC(=O)Nc2c(C)cccc2C)c1	-4%	0%	-2%	-20%	13%	-3%	-7%	-13%
CCOC(=O)C(=O)/C(=C\N(C)C)c1onc(-c2ccccc2Cl)c1C(=O)OC	0%	18%	-23%	5%[46.1 µM]	-1.8%	2%	7%	-25%
CCN(CC)c1ccc(/C=C(\C#N)C(=O)NCc2ccco2)cc1	-2%	3%	·	·	-16%	-19%	·	·
CC(C)n1nnnc1SCC(=O)NCc1ccc2c(c1)OCO2	2%	3%	6%	-10%[46.1 µM]	4.6%	1%	-9%	-18%
CCC(CC)NC(=O)/C=C/c1cccc([N+](=O)[O-])c1	1%	5%	-19%	11%	0.0%	10%	-4%	-2%
COc1ccc(S(=O)(=O)n2cnc(C)c2)cc1	·	-1%	11%	-11%[46.1 µM]	·	-2%	29%	-4%
COc1ccc(OC(=O)c2c(C)nn(-c3ccccc3)c2C)cc1	·	-1%	17%	?	·	-45%	46%	9%
CCNC(=S)N=Nc1c(O)n(Cc2ccc(Cl)cc2)c2ccccc12	?	12%	-6%	?	-9.0%	24%	4%	?
CC(C)OC(=O)C1OC1(C)c1ccccc1 (centres undefined)	·	·	-2%	0%	·	·	7%	-29%
O=S(=O)(Oc1ccccc1)c1ccc(Cl)c(Cl)c1	·	·	4%	1%[46.1 µM]	·	·	-10%	0%[46.1 µM]
Cc1cc2c3c(c1)C1(C(=O)N3C(C)(C)CC2C)C(C#N)=C(N)Oc2n[nH]c(C)c21 (centres undefined)	10%	-4%	?	-29%	-5.1%	-4%	12%	-3%
N#Cc1cccc(N=c2ssnc2Cl)c1	·	2%	?	2%[46.1 µM]	·	·	-24%	-8%
COc1cccc(CNCCO)c1OCc1ccccc1Cl	-1%	-1%	-27%	?	0.2%	-5%	19%	-4%
CCN(Cc1ccccc1)CC(O)COC(c1ccc(OC)cc1)c1ccc(OC)cc1 (centres undefined)	·	0%	-22%	?	·	-1%	-13%	?
CC(c1ccco1)N(C(=O)COc1ccc(Cl)cc1Cl)c1ccccn1 (centres undefined)	-14%	-7%	·	?	-2.1%	-21%	-6%	-12%
CC1CCC(=O)N(CCOc2ccccc2)CC1 (centres undefined)	·	14%	54%[activator]	·	·	-11%	15%	·
CC(=O)Nc1ccc(S(=O)(=O)NCCNS(=O)(=O)c2ccc(NC(C)=O)cc2)cc1	·	3%	7%	·	·	21%	-10%	·

In the list so far, three contain a furan ring, fused or not.
Compound	Cruzain noTriton	SARS PLP yeast	2A StopGo	Marburg entry inh	Cruzain Triton	NS1 function inh	RE007 growth inh	LASV entry inh
Cc1ccc(N(C(=O)c2sc(C)nc2C)C(C(=O)NCc2ccco2)c2ccccc2)cc1 (centres undefined)	?	1%	·	?	-3.7%	-12%	-2%	7.3µM*
CCN(CC)c1ccc(/C=C(\C#N)C(=O)NCc2ccco2)cc1	-2%	3%	·	·	-16%	-19%	·	·
CC(c1ccco1)N(C(=O)COc1ccc(Cl)cc1Cl)c1ccccn1 (centres undefined)	-14%	-7%	·	?	-2.1%	-21%	-6%	-12%

Retrieved by compound from the list above (two):
Compound	Cruzain noTriton	SARS PLP yeast	2A StopGo	Marburg entry inh	Cruzain Triton	NS1 function inh	RE007 growth inh	LASV entry inh
CCC(CC)NC(=O)/C=C/c1cccc([N+](=O)[O-])c1	1%	5%	-19%	11%	0.0%	10%	-4%	-2%
COc1ccc(S(=O)(=O)n2cnc(C)c2)cc1	·	-1%	11%	-11%[46.1 µM]	·	-2%	29%	-4%

More structures.
Compound	Cruzain noTriton	SARS PLP yeast	2A StopGo	Marburg entry inh	Cruzain Triton	NS1 function inh	RE007 growth inh	LASV entry inh
COc1ccc(CNCC(=O)Nc2sccc2C#N)cc1	·	-1%	24%	16%[46.1 µM]	·	4%	-27%	12%
O=C(Nc1ccc2nc(SCC(=O)N3CCOCC3)sc2c1)c1ccc(F)cc1	9%	·	-16%	?	-7.3%	·	·	19%[46.1 µM]
CS(=O)(=O)N1CCN(C(=O)C(Sc2ccccc2)c2ccccc2)CC1 (centres undefined)	9%	7%	-18%	4%	-2.5%	-20%	-13%	-5%
COc1ccc(NC(=O)CSc2nc(-c3ccc(F)cc3)[nH]c2-c2ccc(C)cc2)cc1OC	4%	·	?	?	-5.2%	·	·	-3%[46.1 µM]
Oc1c(C=C2N=c3ccccc3=N2)sc(=S)n1C1CCCCC1	13µM*!	11%&-8%	-16%&-17%	13%&27%	-3.8%&0.4%	2%&2%	7%	0%&26%
COCCN1CCN(Cc2nc(C3(c4ccc(C)cc4)CCCC3)no2)CC1	·	1%	-25%	-5%[46.1 µM]	·	1%	-10%	-7%[46.1 µM]
Cc1ccc(N2CCN(S(=O)(=O)N3CCCCC3)CC2)cc1Cl	-17%	4%	-24%	?	-5.4%	-5%	·	-8%
COc1ccc(NC(=O)NS(=O)(=O)c2ccc(C)cc2)c(OC)c1	-8%	-5%	-8%	1%	2.4%	-5%	-5%	1%
N=C(SC1CC(=O)N(c2ccc(F)cc2)C1=O)N1N=C(c2ccccc2)CC1c1ccccc1 (centres undefined)	·	-2%	-21%	?	·	·	24%	19%
CC1=C(C(=O)OC2CCCCCC2)C(c2cccc(F)c2F)CC(=O)N1 (centres undefined)	-19%	·	0%	12%[46.1 µM]	-3.2%	·	·	13%[46.1 µM]
CN1C(=O)C(=Cc2ccccc2OS(=O)(=O)c2ccccc2)C(=O)N(C)C1=O	·	-2%	?	?	·	0%	7%	-2%[46.1 µM]
CN(C)c1ccc(C(=S)N2CCNCC2)cc1	-9%	22%	-6%	0%	-5.5%	16%	-16%	-5%
COc1ccccc1CNC(=O)c1cc(-c2ccncc2)nc2c(Cl)cccc12	·	-3%	-24%	?	·	15%	55%	-3%
Cc1cccn2c(=O)c(/C=C(\C#N)C(N)=O)c(Oc3ccccc3)nc12	·	2%	-26%	-3%	·	3%	-23%	·
O=C(Nc1ccc(Cl)c(Cl)c1)c1ccccc1NC(=O)C1CC=CCC1C(=O)O (centres undefined)	·	0%	0%	19%[46.1 µM]	·	14%	-8%	17%[46.1 µM]
Cn1c(SCC(=O)NC2CCCc3ccccc32)nnc1C1CC1 (centres undefined)	·	-6%	-3%	5%	·	·	2%	18%
COc1cc([N+](=O)[O-])ccc1NC(=O)CN1CCc2cc(OC)c(OC)cc2C1	·	-5%	-25%	4%	·	2%	2%	?
C#CCN(C(=O)c1ccc(OC2CCN(C(=O)CCOC)CC2)cc1)C1CCCCC1	·	4%	-15%	·	·	-16%	-5%	·
Cn1c(CN2CCC(C(N)=O)CC2)c(C#N)c2ccccc21	-1%	3%	-2%	0%&0%	-0.3%	5%	-14%	11%
CC(C)(C)c1csc(NC(=O)CSc2nc3ccccc3c(=O)[nH]2)n1	11%	-6%	-25%	-5%	2.4%	0%	-5%	9%
Cc1ccc(N/C(CSC(N)=O)=N/S(=O)(=O)c2ccccc2)cc1	-2%	0%	14%	-4%	1.6%	-2%	0%	20%
CC(C)(C)c1cc(-c2n[nH]c(=S)n2-c2ccccc2F)n[nH]1	·	-1%	50%[activator]	?	·	4%	-12%	12%
CN(N=O)c1ccc(CC2CCc3ccccc32)cc1 (centres undefined)	·	·	6%	10%	·	·	15%	6%[46.1 µM]
COCON1C(=O)CN(C(C)=O)C1c1ccc(Cl)cc1Cl (centres undefined)	3%	?	-11%	4%[46.1 µM]	6.1%	1%	-20%	?

Screening results as filed in PubChem.
